Screening results (PubChem BioAssay)
VEEV TC-83 Vero – inhibitors of VEEV TC-83 cytopathic effect, confirmation, Vero cells (AID 588727) | Vero cells, VEEV TC-83 cytopathic effect inhibition; higher % means a stronger effect | inhibition, % at 20 µM; hits with a dose series show IC50 in µM | 350,000 tested, 0.13% active; in the data active = a potency from the dose series; inconclusive = inhibition mostly from about 14% at the one dose, without a potency; inactive = the rest, 99 in 100 with inhibition below about 12%; also: strong numbers were not always called active
tuberculosis growth – growth inhibition of non-replicating M. tuberculosis (AID 488890); Mycobacterium tuberculosis non-replicating, growth inhibition; higher % means a stronger effect; inhibition, % at 25 µM; hits with a dose series show IC50 in µM; 320,000 tested, 0.39% active; in the data active = a potency from the dose series; inconclusive = inhibition mostly from about 82% at the one dose, without a potency; inactive = the rest, 99 in 100 with inhibition below about 76%;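 also: plate controls were DMSO cells for no effect and high antibiotic wells for full effect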
M. tuberculosis HTS – M. tuberculosis growth inhibition, HTS (AID 449762); inhibition, % at 25 µM; hits with a dose series show IC50 in µM; 330,000 tested, 0.59% active; M. tuberculosis H37Rv growth inhibition, 7H9 media; higher % means a stronger effect; in the data active = a potency from the dose series; inconclusive = inhibition above about 70% without an active follow-up result;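 also: bacterial growth assessed after seven days of incubation; strong numbers were not always called active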
VEEV TC-83 Vero 10K pilot screen – further read-out of VEEV TC-83 Vero, marked with its call; inhibition, %; measured here: 10K pilot screen inhibition
Active calls of the source: *; i = inactive; ? = inconclusive; . = not tested or not shown; & = joins results of further samples.

SMILES | VEEV TC-83 Vero | tuberculosis growth | M. tuberculosis HTS | others
Cc1ccc([N+](=O)[O-])cc1N | 0.7% | -1% | -11%
Clc1ccc2c(c1)c1cc(Cl)ccc1n2CN1CCOCC1 | 3.1% | -4% | 8%
O=C(O)c1cccnc1SCc1ccccc1 | 1.3% | 6% | -8%
c1ccc(-c2n[nH]c(-c3ccccn3)n2)nc1 | 3.5% | 6µM* | -2%&-3%
O=C(/C=C/c1ccccc1)c1ccc(NC2=NCCCS2)cc1 | 1.7% | ? | ?
Cc1cc(NC(=O)CSc2nnc(C3COc4ccccc4O3)o2)no1 (stereo not drawn) | 0.8% | 1% | -6%
c1ccc(CCN2CN(CCCN3CCOCC3)c3nc4ccccc4n3C2)cc1 | 6.2% | 8% | -11%
CN1C(=O)/C(=C\c2cc(N=Nc3ccccc3)ccc2O)SC1=S | 4.7% | -1% | 0% | VEEV TC-83 Vero 10K pilot screen=1.7
COc1cc(OC)c(C2CC(=O)N3CN(c4ccccc4)CSC3=C2C#N)cc1OC (stereo not drawn) | i | 28% | -7% | VEEV TC-83 Vero 10K pilot screen=1.7
c1ccc(CSC2=NNC(c3ccccn3)S2)cc1 (stereo not drawn) | 8.1% | ? | 7%
CN1CCCN(S(=O)(=O)c2ccc3ccccc3c2)CC1 | 0.1% | 10% | 12%
CC(C)(C)C(=O)/C(=C\c1cccc([N+](=O)[O-])c1)n1cncn1 | i | ? | 1.5µM*
O=C(N=Nc1c(O)[nH]c2ccccc12)c1cc(-c2cccs2)[nH]n1 | 9.2% | 8% | -5%
COc1ccc2c(c1)c(CC(=O)O)c(C)n2C(=O)c1ccc(Cl)cc1 | 1.1% | 7% | -2%
O=C(Nc1nc(-c2ccccn2)cs1)c1cccc(S(=O)(=O)N2CCOCC2)c1 | i | ? | ?
O=[N+]([O-])c1ccc2c(c1Nc1ccccc1)=NC1(CCCCC1)N=2 | 2.7% | 52% | -1%
COc1ccc(Cc2nnc(N/N=C/c3ccc(O)cc3)[nH]c2=O)cc1OC | 9.4% | -28% | ?
Cc1ccc(NC(=O)OCc2cccs2)cc1 | . | 73% | 4%

Ordered by formula weight (low to high): some entries from above.
SMILES | VEEV TC-83 Vero | tuberculosis growth | M. tuberculosis HTS | others
CC(C)(C)C(=O)/C(=C\c1cccc([N+](=O)[O-])c1)n1cncn1 | i | ? | 1.5µM*
O=C(/C=C/c1ccccc1)c1ccc(NC2=NCCCS2)cc1 | 1.7% | ? | ?
c1ccc(CCN2CN(CCCN3CCOCC3)c3nc4ccccc4n3C2)cc1 | 6.2% | 8% | -11%

Compounds above containing sulfur:
SMILES | VEEV TC-83 Vero | tuberculosis growth | M. tuberculosis HTS | others
O=C(O)c1cccnc1SCc1ccccc1 | 1.3% | 6% | -8%
O=C(/C=C/c1ccccc1)c1ccc(NC2=NCCCS2)cc1 | 1.7% | ? | ?
Cc1cc(NC(=O)CSc2nnc(C3COc4ccccc4O3)o2)no1 (stereo not drawn) | 0.8% | 1% | -6%
CN1C(=O)/C(=C\c2cc(N=Nc3ccccc3)ccc2O)SC1=S | 4.7% | -1% | 0% | VEEV TC-83 Vero 10K pilot screen=1.7
COc1cc(OC)c(C2CC(=O)N3CN(c4ccccc4)CSC3=C2C#N)cc1OC (stereo not drawn) | i | 28% | -7% | VEEV TC-83 Vero 10K pilot screen=1.7
c1ccc(CSC2=NNC(c3ccccn3)S2)cc1 (stereo not drawn) | 8.1% | ? | 7%
CN1CCCN(S(=O)(=O)c2ccc3ccccc3c2)CC1 | 0.1% | 10% | 12%
O=C(N=Nc1c(O)[nH]c2ccccc12)c1cc(-c2cccs2)[nH]n1 | 9.2% | 8% | -5%
O=C(Nc1nc(-c2ccccn2)cs1)c1cccc(S(=O)(=O)N2CCOCC2)c1 | i | ? | ?
Cc1ccc(NC(=O)OCc2cccs2)cc1 | . | 73% | 4%

The list is partial (hit frequency here may not be typical).
